Bioassay records as filed in PubChem.
Six1-Eya2 blk = Six1/Eya2 interaction inhibition. Q15475+O00167. AlphaScreen GST-Six1/His-Eya2 binding, biochemical; stronger effect = lower value; control for the full effect not named in the record. activity change, % (no concentration beside the values). AID 651725. actives 0.56% (n = 360,000); in the data active = activity change below about -65%; inconclusive = about -30% to -65%; inactive = above about -30%; note: % is set by controls: 0 for no effect and ±100 for the full control effect; compound concentration not given in the record
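Compounds are tested against tagged Six1 and Eya2 proteins bridged by glutathione donor and nickel acceptor beads; after a one-hour incubation at 37 °C without light, AlphaScreen emission is recorded.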
PINK1 modulator = PINK1 expression modulation. PINK1 immunofluorescence, high-content cytometry, 24 h. Potency, µM (top dose mostly 76.6 µM), for the others: at the top dose activation (PINK1 increase), most hits filed as activators. AID 624263. actives 0.2% (n = 410,000); active = well fitted activation curve with a large enough effect; inconclusive = small, poorly fitted or top-dose-only effect; inactive = flat fitted curve, though single readings scatter; cell line not stated here;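 note: potency is the fitted concentration of half-maximal effect; % of control where 0% means no effect; nearly all actives have a fitted effect of over 65% in size; a mitochondrial uncoupler was the plate control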
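Cells are seeded, rested 12 hours, then given compound at five concentrations or DMSO for 24 hours. After fixation, blocking and antibody staining, PINK1 amount and mitochondrial localization are scored; CCCP serves as control.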
CtBP-E1A inh = blocks the CtBP interaction with E1A. AlphaScreen GST-E1A/His-CtBP binding, 1536-well; stronger effect = lower value; control for the full effect not named in the record. activity change, % (test concentration not listed). actives 0.49% (n = 340,000); in the data active means activity change below about -65%; inconclusive means about -30% to -65%; inactive means above about -30%; note: % is set by controls: 0 for no effect and ±100 for the full control effect; compound concentration not given in the record
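AlphaScreen with 125 nM GST-E1A and 125 nM His-CtBP (5X stocks) in Tris pH 8.0, 300 mM NaCl, BSA, Tween 20, TCEP. Compounds preincubated 2 h at 37 deg C, then glutathione donor/nickel acceptor beads added for 1 h at 37 deg C in dark.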
D2 agonist = human D2 receptor agonism in beta-arrestin assay; AID 624465; actives 0.084% (n = 360,000); DiscoveRx PathHunter D2 beta-arrestin, luminescence, 90 min; 100% = 57 uM dopamine signal; P14416; activation, % (test concentration not listed); in the data active = activation above about 40%; inconclusive = about 15% to 40%; inactive = below about 15%; note: compound concentration not given in the record; the text of the record calls up to 30% inactive
Target sequence (P14416 whole entry, looked up): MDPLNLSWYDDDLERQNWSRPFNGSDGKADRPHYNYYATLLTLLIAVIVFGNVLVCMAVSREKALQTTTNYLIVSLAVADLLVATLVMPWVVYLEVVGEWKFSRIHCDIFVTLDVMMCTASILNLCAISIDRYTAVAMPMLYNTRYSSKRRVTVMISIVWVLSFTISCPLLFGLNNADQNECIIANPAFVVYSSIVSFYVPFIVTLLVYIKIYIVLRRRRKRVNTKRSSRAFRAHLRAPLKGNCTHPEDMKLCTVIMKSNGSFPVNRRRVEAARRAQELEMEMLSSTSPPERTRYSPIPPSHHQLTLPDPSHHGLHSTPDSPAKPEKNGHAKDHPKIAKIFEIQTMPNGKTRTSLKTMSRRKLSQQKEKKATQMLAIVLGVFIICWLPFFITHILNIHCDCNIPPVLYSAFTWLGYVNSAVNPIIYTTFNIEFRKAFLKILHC
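DiscoveRx PathHunter D2 beta-arrestin cells (2,100/well) attached overnight, then compound-stimulated 90 min at 37 C in HBSS/10 mM HEPES/0.1% Tween-20 buffer; beta-galactosidase complementation read by luminescence after 1 h at ambient temperature. Dopamine 57 uM final (EC100) as control.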
TRPML1 agonist = human mucolipin-1 channel agonism; Q9GZU1; TRPML1-expressing cells, Ca2+ dye fluorescence, FDSS; host cell line not named in the record; reference of the full effect not given here; activation, % (test concentration not listed); actives 0.12% (n = 410,000); in the data active = activation above about 50%; inconclusive = about 30% to 50%; inactive = below about 30%; note: 0% is about no effect; the text of the record puts the active cut at 80%
Target sequence (Q9GZU1 whole entry, looked up): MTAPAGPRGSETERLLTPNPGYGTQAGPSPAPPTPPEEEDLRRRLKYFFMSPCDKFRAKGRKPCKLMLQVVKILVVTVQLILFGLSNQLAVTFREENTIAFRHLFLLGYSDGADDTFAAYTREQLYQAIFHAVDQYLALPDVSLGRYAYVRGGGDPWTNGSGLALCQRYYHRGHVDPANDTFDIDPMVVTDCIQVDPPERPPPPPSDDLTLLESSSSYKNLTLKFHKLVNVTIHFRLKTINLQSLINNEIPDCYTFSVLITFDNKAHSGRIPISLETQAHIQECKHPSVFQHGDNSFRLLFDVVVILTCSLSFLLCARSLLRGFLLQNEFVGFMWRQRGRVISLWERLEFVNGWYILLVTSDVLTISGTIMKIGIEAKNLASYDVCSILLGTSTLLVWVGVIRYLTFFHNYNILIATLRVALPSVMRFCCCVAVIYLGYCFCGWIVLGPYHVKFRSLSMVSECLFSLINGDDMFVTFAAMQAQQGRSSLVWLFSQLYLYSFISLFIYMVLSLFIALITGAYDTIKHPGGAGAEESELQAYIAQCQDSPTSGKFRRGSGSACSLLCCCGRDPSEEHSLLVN
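Tetracycline-induced TRPML1-DL cells are seeded and incubated overnight before loading with a no-wash Ca2+ dye and quencher. Agonist activity is taken from the 110 s fluorescence read following compound pin-transfer on an FDSS, before EC80 54-4 challenge.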
TRPML1 inh = blocks the human TRPML1 channel; Q9GZU1; TRPML1-inducible cells, Ca2+ dye fluorescence, FDSS; stronger effect = lower value; inhibition of EC80 agonist-evoked calcium signal; activity change, negative = inhibition, % (no concentration beside the values); actives 0.02% (n = 390,000); AID 624415; in the data active means activity change below about -50%; inconclusive means about -30% to -50%; inactive means above about -30%;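 note: stimulus is agonist 54-4 at its EC80 concentration; % is set by controls: 0 for no effect and ±100 for the full control effect; compound concentration not given in the record; the text of the record puts the active cut at -80%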
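TRPML1-DL cells, Tet-induced overnight (~16 h, 37 °C) at 1,500 cells/well, were loaded with Ca8 no-wash dye plus quencher for 45-90 min at room temperature. Compounds were pinned during FDSS kinetic reading; agonist 54-4 at EC80 (4 uM final) then added.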
An asterisk follows results filed as active; ? = inconclusive; / = no result given; & = joins results of further samples; [ ] = another dose, or the depositor's remark.

Order of values – Six1-Eya2 blk, PINK1 modulator, CtBP-E1A inh, D2 agonist, TRPML1 agonist, TRPML1 inh
COCCN(C(=S)Nc1ccccc1C)C(C)c1cccnc1 (configuration not stated)
  3, 0.7%, -4, -1.1, 0.4, 36
COc1cccc(C=Nc2ccccc2C#N)c1O
  9, 0.0%, 6, -3.7, -0.9, 37
Cc1cc(C(=O)NNC(=O)CCCCC(=O)NNC(=O)c2cc(C)[nH]n2)n[nH]1
  0, 0.9%, 2, -2.7, 0.6, 11
N/C(=N/OC(=O)c1ccccc1Cl)c1ncc([N+](=O)[O-])s1
  ?, -1.1%, ?, ?, 1.2, 9
COc1ccc(S(=O)(=O)N2CCCC(c3cc(C(=O)NCc4cccnc4)no3)C2)cc1 (configuration not stated)
  1, 0.3%, -2, -5.9, -0.7, /
CC(C)(CNC(=O)c1ccccc1NS(C)(=O)=O)N1CCCCC1
  5, -1.2%, 6, -0.7, -0.4, 17
Cc1cccc(C)c1-n1nnnc1C(c1ccnc2ccccc12)N(CCN(C)C)Cc1ccccc1 (configuration not stated)
  -10, 0.8%, -4, /, 4.5, /
Cc1ccccc1-c1cnc2c(c1)C(=O)N([C@@H](C)CO)C[C@@H](C)[C@H](CN(C)Cc1ccccc1F)O2
  -12, 6.7%, 4, 1.6, 1.3, -3
COc1ccccc1N1CCN(c2ccc3c(c2)S(=O)(=O)c2cccc(C(=O)NCc4cccc(F)c4)c2C3=O)CC1
  1, -0.3%, -5, 1.1, /, /
Cc1cccc(-c2nnc(SCC(=O)N3c4ccccc4CCc4ccccc43)n2C)c1
  -11, 2.6%, 2, -5.0, 3.4, -24
Nc1nonc1-n1nnc(C(=O)N/N=C/c2ccc(OCc3ccccc3F)cc2)c1CN1CCCCC1
  -5, 2.8%, /, 11, 1.7, 11
COc1ccc(-c2nc(CS(=O)CC(=O)N3CCOCC3)c(C)o2)cc1OC (configuration not stated)
  5, -0.4%, 3, -0.5, -0.1, -8
C=CCC(CC=C)(CNC(=O)C(=O)Nc1cccc(C(F)(F)F)c1)c1ccccc1
  /, 1.3%, /, /, 0.7, -4
Cc1ccc(S(=O)(=O)N2CCN(C(=O)COC(=O)Cc3cccc(C(F)(F)F)c3)CC2)c(C)c1
  -1, 1.8%, 4, 1.2, 0.7, -14
Cc1cc(C)cc(NC(=O)c2cc(=O)c3ccccc3o2)c1
  0, 4.5%, 0, -0.2, 1.0, 10
CCOc1ccc(NC(=O)Cn2c(=O)n(Cc3ccccc3)c(=O)c3sc4ccccc4c32)cc1
  /, -0.4%, /, /, -0.8, 12
COc1ccc(C(=O)N=C2CCC(C#N)=C3c4cc(OC)c(OC)cc4CCN23)cc1
  -3, -0.6%, -8, -3.3, -0.7, 7
Nc1cc(=O)[nH]c(SCC(=O)N2CCC(Cc3ccccc3)CC2)n1
  -4, 1.1%, 2, 1.3, 2.2, -12
Cc1ccccc1C1c2[nH]c3ccccc3c2C[C@H]2C(=O)N(c3ccccc3C(=O)NCCCN3CCOCC3)C(=O)N12 (some centres not stated)
  -9, -0.5%, -8, -0.3, /, /
CN1OC[C@@H]2CN(Cc3ccccc3)[C@H](c3cccc(N4CCOCC4)c3)C[C@@H]21
  -17, -1.6%, -4, 1.2, 0.5, -9
CCc1cccc(-n2nnc(-c3nsc(NC(=O)c4ccc(C)cc4)n3)c2C)c1
  /, 0.3%, /, /, -0.1, 4
Cn1c(=O)n(C)c2cc(/C=N/N=C3/NC(=O)C(CC(=O)O)S3)ccc21 (configuration not stated)
  -2, -1.2%, -7, -2.7, -0.2, 15
COc1ccccc1N1CCN(S(=O)(=O)CCNC(=O)c2cc(=O)c3ccccc3o2)CC1
  0, -0.3%&1.1%, -5, -3.3, 0.8&1.5, -1&19
Cc1ccccc1N=C(NOCc1ccc(Cl)cc1Cl)c1nonc1N
  2, 4.2%[38.3 µM], 2, 0.3, 3.6, 29
CCOCCCNC(=O)c1ccc(N(C)S(=O)(=O)c2ccc(OC)cc2)cc1
  3, 1.4%[38.3 µM], -2, -2.2, 0.0, 14
CCNC(=S)N(Cc1ccco1)Cc1cc2cc(OCC)ccc2[nH]c1=O
  -22, 3.1%, -8, -1.4, 1.6, 15
Cc1ccc(-n2nc3c(N4CCC(C(=O)NC5CCCCC5)CC4)nnc(C)c3c2C)cc1
  /, -0.6%, /, /, 1.6, 41
CN(C)CCNC(=O)C(=O)NCC(c1ccc2c(c1)OCO2)N1CCN(c2ccc(F)cc2)CC1 (configuration not stated)
  -10, -0.8%, -9, -4.1, 0.5, 21
O=C(c1ccc(F)cc1)c1cc2ccccc2o1
  21, 5.4%, 11, -0.1, 2.7, 13
CN(C)CCCN(C(=O)c1sc2ccccc2c1Cl)c1nc2c(F)cccc2s1
  -19, ?, 9, -2.9, -0.3, 4
CCOc1cc(C2C(C(=O)Nc3ccccc3)=C(C)Nc3ncnn32)cc(Br)c1O (configuration not stated)
  /, -4.1%, /, /, 0.7, -13
CCOc1ccccc1Nc1ncnc2c1cnn2-c1ccccc1
  4, -1.1%, -25, -2.4, 2.0, 10
COc1ccc(N(C(=O)c2ccco2)C(C(=O)NC2CCCC2)c2cccs2)cc1 (configuration not stated)
  8, 3.0%, 1, -3.5, -0.5, -7
CC(=O)Nc1ccc(C(=O)NNC(=O)c2csc(N3CCOCC3)n2)cc1
  18, -0.5%, -2, -3.8, 1.1, -12
Cc1ccc(CNC(=O)C2CCC(=O)N(CCc3cccc(F)c3)C2)cc1 (configuration not stated)
  2, 1.3%, 5, -1.5, -0.4, 18
CSc1nc(NS(=O)(=O)c2cc(C)c(Cl)cc2Cl)nn1C
  3, 0.9%, 10, -1.3, -0.2, -13
COc1ccc(NC(=O)CCS(=O)(=O)c2cc3c(cc2Cl)NC(=O)CO3)cc1OC
  5, -0.3%, -10, -2.7, -0.2, 69
CCS(=O)(=O)c1c([N+](=O)[O-])ncn1C
  2, 1.5%, /, 0.7, -0.6, 18
Cc1ccc(C(=O)O)cc1NC(=O)Nc1cccc2ccccc12
  -1, -0.4%, -8, -0.3, 0.0, -17
COc1ccccc1OCc1ccc(C(=O)N2CCN(C)CC2)o1
  2, 1.3%, 18, -3.0, 0.5, 51
c1ccc2c(c1)[nH]c1nc(SCCN3CCOCC3)nnc12
  ?, -0.8%, ?, -1.1, -0.3, -11
CN(c1ccc(C(=O)NCCSCc2ccco2)cc1)S(C)(=O)=O
  -6, 6.4%, 0, 1.4, 1.2, -26
COc1cc(OC)c(-n2cc(-c3ccc(Cl)cc3)[nH]c2=O)cc1Cl
  -8, 1.0%, -6, -2.0, 22, 2
O=C(NN=C1CCCC1)c1sc2ccccc2c1Cl
  3, -1.6%, -1, 1.6, 0.6, 8
COc1ccccc1NC(=O)C(C/C=C(\C)Cl)C(C)=O (configuration not stated)
  7, /, 8, -3.7, 1.2, -21
O=C(C[C@@H]1C/C=C/CC[C@@H](Cc2ccc(F)cc2)C(=O)O[C@@H](c2ccccc2)CNC1=O)NCCO
  1, 0.1%, /, 7.9, -0.1, 0
CN1CCc2c(sc3nc(NN)n(Cc4ccccc4)c(=O)c23)C1
  -14, 0.8%, -9, 3.0, 0.0, -7
CCc1c(C)sc(NC(=O)CCc2ccc(OC)cc2)c1C(N)=O
  2, 12%, 8, 1.9, -1.0, -1
C/C(=N\Nc1cc(-c2ccccc2)nc(-c2ccc(Br)cc2)n1)c1cccc(N)c1
  -19, 8.7%[38.3 µM], -18, -3.1, -0.2, -23
CC(C)(C(=O)c1ccccc1)/[N+]([O-])=C/c1ccc(F)cc1
  0, ?, 6, -1.1, -0.4, -1

Additional results follow.
Order of values – Six1-Eya2 blk, PINK1 modulator, CtBP-E1A inh, D2 agonist, TRPML1 agonist, TRPML1 inh
CC(C)(C)NC(=S)NNC(=O)c1ccc2ncccc2c1
  -2, 1.2%, 3, -10, -0.2, 36
O=c1c2ccccc2ncn1-c1ccc2c(c1)OCCO2
  2, -2.4%[38.3 µM], 9, -0.3, 5.4, -12
CC1Cc2ccccc2N1C(=O)C12CCC(C)(C(=O)C1)C2(C)C (configuration not stated)
  4, -3.1%, -7, 0.0, 2.1, 69
CSc1ncc(Cl)c(C(=O)NCc2ccc3c(c2)OCO3)n1
  6, 1.2%, -8, 1.7, 1.5, -14
O=C(c1cc2cc([N+](=O)[O-])ccc2oc1=O)n1cccn1
  -9, 3.6%, -1, -5.3, -0.2, -4
Cn1nnc(NC(=S)NC(=O)Cc2ccccc2)n1
  5, 2.7%, 3, -9.6, 1.2, 34
CCN(Cc1ccccc1)Cc1c(O)ccc2oc(C)c(C(=O)Nc3ccc(C)cc3C)c12
  /, 2.3%, /, /, 2.3, 53
Cc1csc(NC(=O)c2cc3c(C)nn(Cc4ccccc4Cl)c3s2)n1
  3, 8.5%, -25, 8.8, -0.4, 3
O=S(=O)(/N=C(/Sc1ccccc1)c1ccccc1)c1ccccc1
  10, 9.9%, 15, -4.6, 0.2, 8
COc1ccc(CCNC(=O)C2CCCN(c3ncccn3)C2)cc1 (configuration not stated)
  1, 1.9%, 6, 4.6, -0.7, -4
CN(Cc1ccccc1)C(=O)c1ccccc1NC(=O)c1ccco1
  -4, -0.7%, 1, 0.9, -1.5, 28
Cc1c(Cl)cccc1-n1ncc(C(=O)N2CCc3ccccc3C2)c1C1CCN(C(=O)OC(C)(C)C)CC1
  /, -0.6%, /, /, -0.7, 1
CSc1nc2ccsc2c(=O)n1-c1ccccn1
  -2, -0.7%, 6, 1.4, 0.5, 13
Cc1nn2c(nc1=O)SCC(c1ccccc1)=N2
  -2, 0.4%, -1, -1.8, 2.7, 2
Cc1cc(=O)oc(C)c1C(=O)OC(C(=O)c1ccccc1)c1ccccc1 (configuration not stated)
  14, 1.7%, 11, -3.8, 0.8, 18
Cc1cc(Oc2ccc(=O)[nH]n2)nc(Cl)n1
  4, 0.8%, /, -4.7, -0.7, 1
Nc1cc(N2CCOCC2)c(Cl)cc1[N+](=O)[O-]
  -2, 2.5%, -3, -1.7, 0.7, -14
CSCCC(C(=O)Nc1c(C)cccc1C)N(Cc1ccccc1)Cc1ccccc1 (configuration not stated)
  -6, 2.2%, -18, -5.1, 19, /
COc1ccc(CN2C(=O)C(CC(=O)NCc3cccs3)CC(C(=O)N3CCOCC3)=C2C)cc1 (configuration not stated)
  4, -1.4%, 4, -1.5, -0.2, -2
CCC(=O)Nc1nc(CC(=O)Nc2ccccc2)cs1
  4, -3.6%, 7, -0.3, -0.5, -10
CN(Cc1ccccc1F)C(=O)c1sccc1-c1ccccc1
  9, 0.0%, 9, -1.0, 0.8, 24
COc1ccc(-c2sc3cc(OC)c(OC)cc3c2C#CCO)cc1
  -12, 6.6%, -16, -2.7, 0.1, 34
CCOC(=O)c1ccccc1NC(=O)N1CCC(CN2CCOCC2)CC1
  /, 0.5%, /, /, 0.6, 17
NC1=NC[C@H](CC2CCCCC2)N1CCc1cc(C(F)(F)F)cc(C(F)(F)F)c1
  5, -1.1%, /, -7.0, 0.8, 27
